Screening results from PubChem.
DUX4 inh: blocks DUX4-driven transcriptional activation. 293T-iDUX4 ZSCAN4-Gaussia luciferase reporter, 24 h; active compounds read low. activity change, negative = inhibition, % (concentration not given with the values). hit rate 0.8% among 37,000. AID 1224904;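 active = -10% or lower and over 25 points stronger than a control reporter; inconclusive = -10% or lower with a smaller gap; inactive = above -10%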;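 note: 0% = median of neutral control wells and -100% = median of positive control wells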
DUX4 inh difference: further read-out of DUX4 inh, marked with its call; Gaussia minus Italica difference, %; measured here: selective DUX4 reporter inhibition;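 worked out from the two reporters; negative = selective loss of the DUX4 reporter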
DUX4 inh control: recorded beside DUX4 inh, whose call it bears; activity change, negative = inhibition, %; measured here: Italica tet-on control reporter;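 0 = neutral control and -100 = positive control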
Active calls of the source: *; ? = inconclusive; . = no result given; & = joins results of further samples. Not all compounds are listed, so the mix of outcomes need not match the whole.

Below each SMILES – DUX4 inh, DUX4 inh difference, DUX4 inh control
> C[C@@H]1CN([C@H](C)CO)C(=O)c2c(c3ccccc3n2C)-c2ccccc2CO[C@H]1CN(C)C(=O)c1cc(Cl)cc(Cl)c1
 : -40.9*, -25.2*, -15.7*
> CO[C@H](CN(C)Cc1cc(F)ccc1F)[C@H](C)CN(C(=O)Nc1ccc(C(F)(F)F)cc1)[C@H](C)CO
 : 3.8, 2.9, 1.0
> Cc1noc(C)c1S(=O)(=O)Nc1ccc2c(c1)C(=O)N([C@@H](C)CO)C[C@H](C)[C@@H](CN(C)C(=O)c1ccncc1)OCCCC[C@H](C)O2
 : 0.0, -2.0, 2.0
> C[C@H](CO)N1C[C@H](C)[C@H](CN(C)Cc2ccc(F)cc2)Oc2ncccc2C1=O
 : 0.6, -3.5, 4.1
> CN1C(=O)c2cc(NC(=O)c3cccc(F)c3)ccc2OC[C@@H]2O[C@H](CC(=O)NCc3ccccc3Cl)CC[C@@H]21
 : 1.4, -1.1, 2.6
> C[C@@H]1CN([C@H](C)CO)C(=O)c2cc(C#Cc3ccccc3F)cnc2O[C@H]1CN(C)C(=O)C1CCC1
 : 3.1, 0.3, 2.8
> COc1ccc2c3c(n(C)c2c1)[C@@H](CO)N(C(=O)NC1CCCC1)CC31CCN(C(C)=O)CC1
 : 12.1, -2.5, 14.6
> O=C(Nc1cccc(F)c1)N1CCCCN2[C@H](CO)[C@@H](c3ccc(C#CC4CC4)cc3)[C@@H]2C1
 : ?, ., .
> CC(C)NC(=O)NCC[C@@H]1CC[C@H](NC(=O)c2ccc(F)cc2)[C@@H](CO)O1
 : 0.6, -0.3, 0.9
> O=C(NCc1ccccc1)[C@H]1[C@H](CO)[C@H]2Cn3c(cccc3=O)[C@H]2N1C(=O)C1CC1
 : -0.4, 3.4, -3.8
> C/C=C/c1cnc2c(c1)C(=O)N([C@H](C)CO)C[C@@H](C)[C@@H](CN(C)S(=O)(=O)c1ccc(OC)cc1)O2
 : 3.5, 0.3, 3.2
> C[C@H]1CCCCO[C@H](CN(C)C(=O)CCCN(C)C)[C@@H](C)CN([C@@H](C)CO)C(=O)c2cc(NC(=O)Nc3ccc4c(c3)OCO4)ccc2O1
 : -1.7, 0.8, -2.5
> CCCNC(=O)N1CC2(C1)[C@H](c1ccccc1)[C@@H](CO)N2Cc1ccc(F)cc1
 : -1.9, -5.0, 3.1
> CN(C)C(=O)[C@H]1[C@H](CO)[C@H]2Cn3c(ccc(C4=CCCC4)c3=O)[C@@H]1N2CC1CCOCC1
 : -0.4, 0.3, -0.7
> COCC#Cc1ccc([C@@H]2[C@@H](CO)N3CCCCN(C(=O)NC4CCCC4)C[C@@H]23)cc1
 : -3.5, -16.6, 13.1
> O=C(C[C@H]1C[C@@H]2c3cc(NC(=O)CC4CC4)ccc3O[C@@H]2[C@@H](CO)O1)NCC1CC1
 : 7.7, 9.0, -1.4
> CCC(=O)N1CC2(C1)CN(C(=O)Nc1ccc(F)cc1)[C@@H](CO)c1c2c2ccc(OC)cc2n1C
 : 5.2, 2.7, 2.5
> C[C@H](CO)N1C[C@H](C)[C@@H](CN(C)C(=O)CCC(F)(F)F)OCCCC[C@H](C)Oc2ccc(NC(=O)Cc3ccccc3)cc2C1=O
 : 0.6, 1.0, -0.3
> O=C(CN1CCOCC1)N1CC2(C1)[C@H](c1ccccc1)[C@@H](CO)N2Cc1ccc(F)cc1
 : 5.1, 2.0, 3.1
> C[C@H]1CN([C@@H](C)CO)C(=O)CCCn2cc(nn2)CO[C@H]1CN(C)C
 : -5.4, -6.3, 0.9
> CCC(=O)N1CCC2(CC1)CN(Cc1nccs1)[C@H](CO)c1c2c2ccc(OC)cc2n1C
 : 8.6, 11.0, -2.4
> COc1cccc(S(=O)(=O)N2CC[C@@H]3[C@@H](CO)Nc4ccc(-c5ccc(C#N)cc5)cc4[C@@H]32)c1
 : ?, ., .
> O=C(C[C@@H]1C[C@H]2c3cc(NC(=O)Nc4ccccc4F)ccc3O[C@H]2[C@H](CO)O1)NCC1CC1
 : -6.4, -17.8, 11.5
> Cc1noc(C)c1NC(=O)NCC[C@H]1CC[C@@H](NC(=O)Nc2cccc(Cl)c2)[C@@H](CO)O1
 : 4.9, 0.5, 4.4
> CN1[C@@H]2c3ccc(-c4ccccc4F)c(=O)n3C[C@@H]2[C@@H](CO)[C@@H]1C(=O)NCC(F)(F)F
 : -2.8, -5.2, 2.4
> CN1C(=O)c2cc(NS(=O)(=O)c3cccc(F)c3)ccc2OC[C@@H]2O[C@@H](CC(=O)NCCN3CCCCC3)CC[C@H]21
 : 8.6, 23.5, -14.9
> Cn1cnc(S(=O)(=O)N2CC[C@@H]3[C@H](CO)Nc4ccc(C#Cc5cccc(F)c5)cc4[C@@H]32)c1
 : 4.5, 11.3, -6.8
> O=C(C[C@@H]1C[C@H]2c3cc(NC(=O)C4CCC4)ccc3O[C@H]2[C@H](CO)O1)NCC1CC1
 : 6.9, 1.6, 5.3
> O=C(c1ccc2c(c1)OCO2)N1C[C@@H]2N[C@H](C1)C2c1ccc(-c2cncnc2)cc1 (stereo not given in full)
 : -5.6, -18.0, 12.4
> O=C(Nc1cccc(F)c1)N1C[C@@H]2N[C@H](C1)C2c1ccc(-c2cncnc2)cc1 (stereo not given in full)
 : -7.5, -16.9, 9.4
> O=C(NC[C@@H]1[C@H](c2ccccc2)[C@@H](CO)N1CC1CCCC1)c1cccnc1
 : 0.5, 0.4, 0.2
> O=C(c1ccc(F)cc1)N1CC[C@@H]2[C@@H](CO)Nc3ccc(-c4ccccc4F)cc3[C@@H]21
 : ?, ., .
> O=C(c1ccc(F)cc1)N1[C@@H](CO)[C@@H]2c3ccccc3NC[C@@H]21
 : -3.5, -0.4, -3.2
> C[C@@H]1CCCCO[C@H](CN(C)C(=O)Nc2ccc3c(c2)OCO3)[C@H](C)CN([C@H](C)CO)C(=O)c2cc(NS(=O)(=O)c3ccc(F)cc3)ccc2O1
 : 3.0, -1.3, 4.4
> O=C(c1ccc(F)cc1)N1C[C@@H]2[C@H](c3ccccc31)[C@H](CO)N2Cc1ccc2c(c1)OCO2
 : -3.6, -1.8, -1.8
> O=C(Nc1ccccc1)N1C[C@@H]2[C@H](c3ccccc31)[C@@H](CO)N2C(=O)c1ccncc1
 : -2.1, 1.7, -3.8
> O=C(C[C@H]1CC[C@H]2[C@@H](COC[C@@H](O)CN2C(=O)c2ccncc2)O1)NC1CCC1
 : 3.2, 7.7, -4.5
> CN1c2ccc(-c3cccc(F)c3)cc2[C@H]2[C@H](CCN2C(=O)CC2CC2)[C@@H]1CO
 : -4.1, 24.4, -28.5
> N#C[C@@H]1[C@@H](c2ccc(-c3ccccc3)cc2)[C@H](CO)N1C(=O)Cc1ccccc1
 : ?, ., .
> CC(C)NC(=O)Nc1ccc2c(c1)C(=O)N(C)[C@@H]1CC[C@@H](CC(=O)NCC(F)(F)F)O[C@H]1CO2
 : 7.2, 6.2, 1.0
> C(=C\c1ccc(C2[C@H]3CNC[C@@H]2N3Cc2ccccn2)cc1)/c1ccccc1 (stereo not given in full)
 : 5.1&0.4, 5.1&0.8, 0.0&-0.5
> CNC(=O)C[C@@H]1CC[C@@H]2[C@H](COC[C@@H](O)CN2C(=O)Nc2ccc3c(c2)OCO3)O1
 : 4.3, -0.1, 4.4
> COc1ccc2c3c([nH]c2c1)[C@H](CO)N(C(=O)c1cccnc1)CC31CCN(C(=O)c2cccnc2)CC1
 : 8.9, -1.8, 10.7
> O=C(C[C@@H]1CC[C@@H]2[C@H](COC[C@H](O)CN2C(=O)c2ccccc2F)O1)NCc1ccc(Cl)cc1
 : 10.8, 8.4, 2.4
> C[C@@H]1CCCCO[C@@H](CN(C)Cc2ccc(C(=O)O)cc2)[C@@H](C)CN([C@H](C)CO)C(=O)c2cc(N(C)C)ccc2O1
 : 2.2, 2.5, -0.4
> C[C@H](CO)N1C[C@H](C)[C@@H](CN(C)S(=O)(=O)c2cccc(F)c2)Oc2ncc(-c3cccc(C(=O)N(C)C)c3)cc2C1=O
 : -0.3, -3.7, 3.5
> C[C@@H](NC(=O)C[C@H]1C[C@@H]2c3cc(NC(=O)CN(C)C)ccc3O[C@@H]2[C@H](CO)O1)c1ccccc1
 : 4.7, 6.7, -2.0
> CCCC#Cc1cnc2c(c1)C(=O)N([C@H](C)CO)C[C@H](C)[C@H](CN(C)C(=O)C1CCC1)O2
 : 3.2, 14.0, -10.7
> CO[C@@H]1CN(C)C(=O)c2cc(NC(=O)c3ccc4c(c3)OCO4)ccc2OC[C@H](C)NC[C@@H]1C
 : -1.5, -6.3, 4.8
> O=C(C[C@H]1CC[C@H]2[C@@H](COC[C@H](O)CN2C(=O)Nc2ccc(Cl)c(Cl)c2)O1)NCc1ccc(F)cc1
 : ?, ., .
> Cc1ccc(S(=O)(=O)N2CC[C@H]3[C@@H](CO)N(C)c4ccc(-c5ccc(C#N)cc5)cc4[C@H]32)cc1
 : 2.7, -2.1, 4.8
> C[C@H](CO)N1C[C@H](C)[C@@H](CN(C)C(=O)Nc2ccccc2F)OCc2cn(nn2)CCCC1=O
 : 2.7, 2.9, -0.2
> CC(C)NC(=O)N1C[C@H]2[C@@H](c3ccccc31)[C@@H](CO)N2C(=O)c1ccncc1
 : 1.4, 1.4, 0.0
> COc1ccccc1-c1ccc([C@@H]2[C@H](C#N)N[C@H]2CO)cc1
 : 4.0, 2.2, 1.8
> COc1cccc(CN(C)C[C@H]2OCc3cn(nn3)CCCC(=O)N([C@@H](C)CO)C[C@H]2C)c1
 : -3.4, -2.6, -0.8
> CCCN(C)C[C@@H]1OCCCC[C@H](C)Oc2ccc(NC(=O)Nc3ccc4c(c3)OCO4)cc2C(=O)N([C@H](C)CO)C[C@@H]1C
 : -0.3, 1.4, -1.7
> O=C(C[C@@H]1C[C@H]2c3cc(NC(=O)Nc4ccc(C(F)(F)F)cc4)ccc3O[C@H]2[C@H](CO)O1)NC1CCCCC1
 : ?, ., .
> O=C(C[C@H]1CC[C@@H]2[C@H](COC[C@@H](O)CN2S(=O)(=O)c2ccc(Oc3ccccc3)cc2)O1)Nc1ccccc1
 : ?, ., .
> CCCNC(=O)[C@H]1[C@H](CO)[C@H]2Cn3c(ccc(-c4cccc(F)c4)c3=O)[C@@H]1N2C(=O)CC
 : -6.4, -8.9, 2.5
> CO[C@@H]1CC[C@H]2CCOc3ccc(C#N)cc3C(=O)N(C)[C@H](C)C(=O)N(C)C[C@H]1O2
 : 4.0, 2.1, 2.0

Three neighbouring entries out of the list so far:
Below each SMILES – DUX4 inh, DUX4 inh difference, DUX4 inh control
> O=C(C[C@H]1CC[C@@H]2[C@H](COC[C@@H](O)CN2S(=O)(=O)c2ccc(Oc3ccccc3)cc2)O1)Nc1ccccc1
 : ?, ., .
> CCCNC(=O)[C@H]1[C@H](CO)[C@H]2Cn3c(ccc(-c4cccc(F)c4)c3=O)[C@@H]1N2C(=O)CC
 : -6.4, -8.9, 2.5
> CO[C@@H]1CC[C@H]2CCOc3ccc(C#N)cc3C(=O)N(C)[C@H](C)C(=O)N(C)C[C@H]1O2
 : 4.0, 2.1, 2.0

Going on with the list.
Below each SMILES – DUX4 inh, DUX4 inh difference, DUX4 inh control
> C[C@@H]1CN([C@H](C)CO)C(=O)c2cc(C3=CCCC3)cnc2O[C@H]1CN(C)C(=O)Nc1ccc(C(F)(F)F)cc1
 : -0.6, -4.0, 3.4
> CCCC(=O)Nc1ccc2c(c1)C(=O)N(C)C[C@H](OC)[C@@H](C)CN(C(=O)C1CCCC1)[C@@H](C)CO2
 : -1.8, -5.1, 3.3
> CO[C@H]1CN(C)C(=O)c2cccc(C#N)c2OCC[C@H]2CC[C@@H](OC)[C@H](CN(C)C(=O)[C@@H]1C)O2
 : 1.2, -0.2, 1.4
> CN1C(=O)c2cc(NC(=O)c3cnccn3)ccc2OC[C@H]2O[C@H](CC(=O)NCC3CCCCC3)CC[C@@H]21
 : 2.9, 1.5, 1.4
> C/C=C/c1ccc([C@@H]2[C@@H](CNC(=O)CC)N(C(=O)CC)[C@H]2CO)cc1
 : -2.0, -4.7, 2.6
> C[C@@H]1CN([C@@H](C)CO)C(=O)c2cc(NS(=O)(=O)c3cn(C)cn3)ccc2O[C@@H]1CN(C)C(=O)Nc1cccc2ccccc12
 : -1.8, -0.8, -1.1
> Cc1ccc(S(=O)(=O)Nc2cccc3c2O[C@@H](CN(C)Cc2ccncc2)[C@H](C)CN([C@H](C)CO)C3=O)cc1
 : -2.8, -1.9, -0.9
> O=C(C[C@@H]1C[C@H]2c3cc(NC(=O)c4cccnc4)ccc3O[C@H]2[C@H](CO)O1)NC1CCCCC1
 : -1.0, -2.2, 1.3
> COc1ccc(S(=O)(=O)Nc2ccc3c(c2)CC(=O)N([C@H](C)CO)C[C@@H](C)[C@@H](CN(C)Cc2ccc(C(=O)Nc4ccccc4N)cc2)O3)cc1
 : -2.4, -4.5, 2.1
> COC(=O)[C@H]1[C@H](CO)[C@H]2Cn3c(ccc(-c4ccccc4)c3=O)[C@H]2N1Cc1ccccn1
 : 0.0, -2.2, 2.1
> O=C(c1cccnc1)N1C[C@@H]2N[C@H](C1)C2c1ccc(-c2ccccc2)cc1 (stereo not given in full)
 : 10.7, 12.8, -2.2
> COc1ccccc1CN1[C@H](CO)[C@@H]2c3ccccc3N(C(=O)c3ccncc3)C[C@@H]21
 : -4.6, 0.0, -4.6
> COc1ccc2c3c(n(C)c2c1)[C@@H](CO)N(Cc1cccnc1)CC31CCN(C(=O)NC(C)C)CC1
 : 12.8, 6.7, 6.1
> Cc1ccc(S(=O)(=O)N(C)C[C@H]2OCCCC[C@@H](C)Oc3ccc(NC(=O)C4CCCCC4)cc3C(=O)N([C@@H](C)CO)C[C@@H]2C)cc1
 : 5.8, 4.8, 1.0
> C[C@H]1CN([C@@H](C)CO)C(=O)CCCn2nncc2CO[C@@H]1CN(C)C(=O)Cc1ccccc1
 : -1.3, -0.5, -0.8
> CO[C@H]1CN(C)C(=O)c2ccc(NC(=O)Nc3cccc(F)c3)cc2OC[C@@H](C)N(C(=O)Nc2c(C)noc2C)C[C@H]1C
 : 2.0, 3.6, -1.6
